Screening data: PubChem BioAssay, several laboratories
FGF22 binding: FGF22 (human) thermal shift binding; recombinant FGF22 thermal shift, SYPRO orange fluorescence; percent of sucrose octasulfate shift, DMSO zero; calls only at 9.99 µM; 1.5% of 340,000 active;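 active means melting point raised past a set limit in the mean and every replicate; inconclusive means no clear call; three in four hits are not shown here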
Target sequence (Q9HCT0 whole entry, looked up): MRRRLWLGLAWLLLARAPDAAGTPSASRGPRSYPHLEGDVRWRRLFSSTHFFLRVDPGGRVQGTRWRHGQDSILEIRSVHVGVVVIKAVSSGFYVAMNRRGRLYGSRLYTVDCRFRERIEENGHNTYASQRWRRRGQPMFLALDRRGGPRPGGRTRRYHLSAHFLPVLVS
Bfl-1 A1 inh: inhibitors of the anti-apoptotic protein A1, read as caspase activation | MEF A1-2A-BIM cells, Caspase-Glo 3/7 luminescence, 3 h; percent of clofoctol response, vehicle zero | caspase activation, % (concentration not given with the values) | 0.066% of 330,000 active | AID 2462;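 active means over half of replicate activation scores above 10%, or exactly half above 10 with the replicate mean above 10; inconclusive means replicate mean below 10 yet half the replicates above 10; inactive means over half of replicates below 10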;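 further: wells of about 30 µL received 50 nL stock; many hits fall short of the cut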
Beta apoptosis: blocks beta cell apoptosis | INS-1E cytokine-induced death, ATP luminescence, 48 h; percent of positive-control rescue, neutral wells zero | protection from apoptosis, % (concentration not given with the values) | 0.8% of 300,000 active;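 active means all replicates at 75% or more, or half of them and the mean; inconclusive means half reach 75% but not the mean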;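 further: 0% = cytokine-treated negative control wells and 100% = positive control rescue; higher means more ATP so stronger rescue from cytokine killing; wells of about 40 µL received 100 nL stock; the first replicate is given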
AF4-AF9 inh: MLL-AF4/AF9 protein interaction inhibition; 0.47% of 350,000 active; AID 651704; AlphaScreen, biotin-AF4 peptide binding to FLAG-AF9; inhibition, % at 10 µM;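 active means every replicate reaching a set inhibition limit, whatever the replicate mean, cut at about 25% in these data; inconclusive means mean inhibition reaches that limit but some replicates miss it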;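 further: 0% = plate neutral control median and 100% = total signal loss; the record names both 10 and 1 µM as test concentration; the first replicate is given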
Target sequence (P42568 whole entry, looked up): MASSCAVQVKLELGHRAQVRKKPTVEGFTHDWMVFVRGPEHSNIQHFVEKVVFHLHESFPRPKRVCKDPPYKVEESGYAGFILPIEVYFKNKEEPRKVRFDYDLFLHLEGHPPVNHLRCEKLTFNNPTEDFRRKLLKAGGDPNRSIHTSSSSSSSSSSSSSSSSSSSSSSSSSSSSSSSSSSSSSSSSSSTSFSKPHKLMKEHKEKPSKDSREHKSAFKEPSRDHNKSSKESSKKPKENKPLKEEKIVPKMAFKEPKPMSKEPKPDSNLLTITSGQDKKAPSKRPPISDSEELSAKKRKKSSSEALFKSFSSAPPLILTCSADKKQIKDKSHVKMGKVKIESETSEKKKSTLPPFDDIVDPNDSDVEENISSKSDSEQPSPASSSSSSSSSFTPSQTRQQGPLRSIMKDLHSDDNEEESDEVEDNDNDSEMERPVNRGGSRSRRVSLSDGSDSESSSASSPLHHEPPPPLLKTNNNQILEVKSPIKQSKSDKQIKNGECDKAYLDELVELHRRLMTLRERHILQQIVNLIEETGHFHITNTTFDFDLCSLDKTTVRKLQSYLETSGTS
Ecoli growth: inhibitors of Escherichia coli growth; AID 1053175; OD600 absorbance (test concentration not listed); 0.21% of 330,000 active; OD600, 23 h; hits give low values;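 active means OD600 absorbance below the run mean of sample wells minus 3.6 SD, in any replicate, cut at about 0.56 in these data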;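 further: stock transfer was 300 nL into about 60 µL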
UCH37 DUB inh: blocks the human deubiquitinase UCH37. 0.33% of 330,000 active. inhibition, % (test concentration not listed). purified proteasome/UCH37, Ub-AMC cleavage fluorescence;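 active means mean of two replicates above 20%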;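 further: 0% = compound-free wells with enzyme and 100% = wells lacking proteasome; stock transfer was 100 nL into about 20 µL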
Target sequence (Q9Y5K5 whole entry, looked up): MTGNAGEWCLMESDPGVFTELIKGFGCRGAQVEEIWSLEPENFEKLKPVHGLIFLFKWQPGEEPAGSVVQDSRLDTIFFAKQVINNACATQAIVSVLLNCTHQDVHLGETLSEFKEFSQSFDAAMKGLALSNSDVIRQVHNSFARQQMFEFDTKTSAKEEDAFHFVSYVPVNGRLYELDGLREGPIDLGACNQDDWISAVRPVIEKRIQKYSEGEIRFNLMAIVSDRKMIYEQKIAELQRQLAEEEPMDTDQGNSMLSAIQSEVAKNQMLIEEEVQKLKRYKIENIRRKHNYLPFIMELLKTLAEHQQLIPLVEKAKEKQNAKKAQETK
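Schedule: 30 min plus 25 min, room temperature / Material: human UCH37 within purified proteasomes / Technique: AMC fluorescence intensity at 355/460 nm / Buffer or medium: pH 7.4 Tris-HCl (50 mM) with ovalbumin, ATP-MgCl2, DTT / Controls: wells without proteasome as full block, compound-free enzyme plus substrate as uninhibited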
T cruzi repl: T. cruzi replication inhibition | T. cruzi beta-gal in NIH3T3, luminescence, 90 h | 1.4% of 300,000 active | inhibition, % (test concentration not listed);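 active means mean inhibition across valid replicates above about 55%, limit read from the data; inconclusive means mean below that limit but half or more replicates reach it; inactive means mean below it, under half of replicates reach it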;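 further: signal also drops with host cell toxicity which is not excluded here; 0% = plate median of DMSO wells and 100% = zero luminescence signal; higher percent means less beta-gal luminescence so fewer parasites; stock transfer was 50 nL into about 50 µL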
Ecoli rRNA inh: selective bacterial rRNA inhibition in E. coli; E. coli WT GFP vs humanized-ribosome RFP mutants, fluorescence, 24 h; hits give low values; DMSO median 0, no signal -100; GFP signal change (wild-type ribosome), % (no concentration beside the values); 1.6% of 350,000 active; AID 720706;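 active means significant combined selectivity score with lowered wild-type GFP, culture density cut under 30%, mutant RFP and density less affected; inactive means any of these conditions unmet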; further: one replicate is shown; some compounds called inactive have numbers as strong as hits
Ecoli rRNA inh OD600: recorded beside Ecoli rRNA inh, whose call it bears; OD600 change, %; measured here: OD600 growth;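 optical density of the mix in the first replicate; 0 = DMSO median and -100 = no signal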
Ecoli rRNA inh RFP: recorded beside Ecoli rRNA inh, whose call it bears; RFP signal change, %; measured here: RFP humanized mutant strains;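 first replicate; 0 = DMSO median and -100 = no signal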
An asterisk follows results filed as active; i = inactive; ? = inconclusive; . = no result given; & = joins results of further samples.

SMILES	FGF22 binding	Bfl-1 A1 inh	Beta apoptosis	AF4-AF9 inh	Ecoli growth	UCH37 DUB inh	T cruzi repl	Ecoli rRNA inh	Ecoli rRNA inh OD600	Ecoli rRNA inh RFP
CN1CCN(C(=S)Nc2cccc(S(=O)(=O)N(C)C)c2)CC1	i	0.6	-4	0.1	0.66	0.4	1	21	19	-0.3
Cc1cc(Cl)c(Cl)cc1S(=O)(=O)NCCCn1ccnc1	i	-0.5	-1	3.7	0.64	4.2	9	-5	-18	-5.9
O=C(CN1C(=O)NC(Cc2c[nH]c3ccccc23)C1=O)Nc1ccc(F)c(F)c1F (centres undefined)	i	-0.1	3	-2.6	0.7	-1.3	.	11	13	-1.0
COc1cccc(N=Cc2c(O)n(-c3cccc(C)n3)c(=O)c3ccccc23)c1	.	0.9	4	.	0.71	3.8	9	.	.	.
COc1ccc([C@@H]2[C@@H]3C(=O)N(C(C)(C)C)C(=O)[C@@H]3[C@]3(C)C(=O)N(c4cccc(Cl)c4)C(=O)N23)cc1	.	0.3	-2	.	.	1.9	2	.	.	.
COc1cc(C2/C(=C(\O)c3ccc4c(c3)OCCO4)C(=O)C(=O)N2c2nnc(C)s2)cc(OC)c1OC (centres undefined)	i	0.8	-4	-3.5	0.71	9.8	-19	1	2	-5.2
Nc1c(-c2ccccc2)cnn1-c1cccc([N+](=O)[O-])c1	.	-1.4	1	.	0.65	1.2	-10	.	.	.
c1ccc2nc3c(nc2c1)OCC1CCCCN31 (centres undefined)	i	-2.8	0	3.3	0.7	i	7	8	-1	0.5
CCC(C)NC(=O)CSC1=Nc2ccccc2C2=NC(CC(=O)NCc3ccc(F)cc3)C(=O)N12 (centres undefined)	.	-0.4	0	.	0.68	-86	-1	.	.	.
Cc1ccc(-c2ccc(S(=O)(=O)NCc3ccco3)cc2)cc1	i	0.4	2	-1.5	0.7	1.8	12	-2	-1	-2.2
COC(=O)c1ccc(CN2C(=O)NC3(CCC(C)CC3)C2=O)cc1 (centres undefined)	i	-0.2	-9	-1.7	0.68	0.3	-3	5	4	0.4
N#Cc1nc(N2CCCCC2)nc(N2CCOCC2)n1	i	0.0	.	2.6	0.71	6.1	15	3	-4	-4.6
Cc1ccc(N=C2NC(=O)/C(=C\c3cccs3)S2)cc1C	i	1.0	-3	4.6	0.72	3.4	-6	1	17	0.6
Cc1ccccc1N1CCN(C2CCCN(C(=O)CCC3(C)CC3)C2)CC1 (centres undefined)	i	-0.1	.	3.2	0.71	0.0	18	-8	-13	3.1
CCN(C(=O)Cc1cccs1)c1nnc(-c2cccnc2)s1	.	-0.5	0	.	0.73	2.8	.	-4	6	-7.1
O=C(c1ccc(Cl)c(S(=O)(=O)N2CCOCC2)c1)N1CCN(c2ccccc2F)CC1	i	0.6	-2	-1.5	0.71	1.3	2	-2	-6	1.2
Cc1ccc(S(=O)(=O)N(Cc2ccccc2)C(C)C)cc1	i	0.4	3	-3.3	0.69	-0.5	5	-24	-26	-2.9
COc1ccc(C(=O)N(C)C2CCCc3ccccc32)cc1OC1CCN(C(C)C)CC1 (centres undefined)	i	0.9	22	1.6	0.72	5.6	26	5	5	-0.5
O=C(c1ccco1)N1CCN(c2nnc(-c3ccccc3)c3ccccc23)CC1	.	2.1	5	.	0.68	6.6	-7	.	.	.
CC(=O)NC1=NN(C(C)=O)C(C)(CCS(=O)(=O)c2ccc(Br)cc2)S1 (centres undefined)	i	0.5	0	-6.5	0.66	3.0	-1	6	-4	-9.1
NC(=O)C1CCN(c2nc(-c3ccccc3Br)cs2)CC1	i	0.1	5	-4.2	.	4.6	.	-1	-7	-7.4
CC(=O)N1CCN(Cc2nc3cc([N+](=O)[O-])ccc3n2C)CC1	i	0.6	-4	-2.1	0.65	6.6	12	6	11	0.1
O=C(NCc1cccc(F)c1)C1CCC(=O)N(C2CCCC2)C1 (centres undefined)	i	-0.9	1	-2.4	0.71	3.6	-3	9	11	5.4
COc1ccc(-c2nnc(SCC(=O)Nc3ncc(C(F)(F)F)cc3Cl)n2CC(C)C)cc1	.	-0.3	-7	.	0.67	-0.7	-29	.	.	.
O=C(NC1CCCCCC1)C(=O)NC1CCCC1	.	-0.6	-1	.	0.67	1.2	-15	.	.	.
CC(NC(=O)c1ccc(Cl)c(S(=O)(=O)N2CCCCCC2)c1)c1cccnc1 (centres undefined)	i	0.7	0	-1.7	0.64	1.2	.	-15	-22	-1.7
CCOC(=O)C1CCN(CC(=O)c2ccc(O)c(C)c2O)CC1	i	-0.4	1	1.2	0.67	-6.2	-7	9	8	11
CC(CCN(C)C)OC(=O)c1ccc(C(C)c2ccccc2)o1 (centres undefined)	i	0.0	0	0.7	0.71	2.2	72*	13	7	2.9
COc1ccc(CCC(=O)Nc2nnc(C(F)(F)F)s2)cc1	i	-0.1	-9	0.1	0.7	2.4	-5	2	11	6.4
COc1cccc(CNc2ccc(S(=O)(=O)N3CCN(C)CC3)cn2)c1	i	0.2	-3	0.3	0.66	2.7	.	4	11	-2.9
CCOCc1c(C(=O)NC2=Nc3ccccc3NC(CC)=C2C(=O)OCC)oc2ccccc12	i	-0.8	10	-4.3	0.7	1.9	56*	7	7	-0.3
COc1ccc(CCNC(=O)c2[nH]c(C)c(C(C)=O)c2C)cc1OC	.	-0.4	-6	.	0.76	2.7	-2	.	.	.
O=C(Nc1cccc2ncccc12)c1cccc(Br)c1	i	-1.2	4	-2.5	0.61	0.9	-5	2	12	-4.3
CC(=O)c1ccc(Nc2cc(C)nc3c(C)cccc23)cc1	i	-0.4	23	0.4	0.68	-26	-1	13	2	-2.8
COc1cc(NC(=O)N[C@@H](CCSC)C(=O)O)cc(OC)c1	i	0.0	-5	3.0	0.66	0.2	3	11	8	-7.3
Cc1ccc(C(=O)CCC(=O)OCC(=O)Nc2ccc3[nH]c(=O)[nH]c3c2)cc1	i	0.1	.	2.6	0.64	2.2	-1	7	2	-0.4
Cc1cc(NC(=O)c2c([N+](=O)[O-])c(C)nn2C)no1	.	-0.5	-5	.	0.69	3.7	2	.	.	.
O=C(/C=C/c1ccc(F)cc1)NC(=S)NC1CCCCC1	i	1.7	5	-12	0.68	5.1	2	9	8	-0.1
CN(C)S(=O)(=O)c1ccc(N2CCCC2)c(C(=O)Nc2nccs2)c1	i	-0.7	-14	-1.0	0.68	-1.7	.	1	2	-0.6
CCN(CC)S(=O)(=O)c1ccc(N2CCN(CCOc3ccc(OC)cc3)CC2)nc1	i	0.0	10	4.8	0.63	1.9	21	-10	-14	0.2
COC(=O)c1ccc(NC(=O)CSCC(=O)OCC(=O)c2ccc(Br)cc2)cc1	.	0.4	-3	.	0.67	1.6	-2	.	.	.
Cc1ccc(S(=O)(=O)NCC(=O)Nc2ccc3c(c2)OCCO3)cc1	i	1.1	1	-2.5	0.65	1.4	-5	0	5	0.6
O=C(NCCN1C(=O)CSC1=O)C1CC(=O)N(c2ccccc2)C1 (centres undefined)	.	0.3	-3	.	0.68	-0.7	-14	.	.	.
CCc1ccc([C@H]2C(C(=O)O)=C[C@@H](CC)N2S(=O)(=O)c2ccc(C)cc2)cc1	i	.	.	-0.9	0.69	1.0	.	-5	-17	0.3
COc1ccccc1C(=O)Nc1ccc2c(c1)nc(CN1CCN(C(C)=O)CC1)n2C	.	0.1	-1	.	0.66	1.4	6	.	.	.
CN(C)S(=O)(=O)c1ccc(Cl)c(NC(=O)CN2CCCCCC2)c1	i	0.9	0	-0.7	0.68	1.7	12	3	-2	-14
N#CCCN(CCC#N)C(=S)NC1CC2C=CC1C2 (centres undefined)	i	-0.8	.	.	0.68	4.4	-16	7	-1	-4.5
N#CCCN1CCN(C(=S)c2ccc(-c3ccc(Cl)cc3)o2)CC1	.	0.6	-5	.	0.65	7.6	23	-28*	-19*	1.2*
C[C@H](CO)N1C[C@H](C)[C@@H](CN(C)C(=O)Nc2ccccc2)Oc2ccc(NS(=O)(=O)c3cn(C)cn3)cc2C1=O	i	-0.5	-5	-2.8&-0.2	0.76	-34	.	5&-2	9&6	2.1&-3.5
COc1ccc(N(CC(=O)NC(C)(C)C)C(=O)CCC(=O)Nc2nccs2)cc1	i	0.1	-10	3.4	0.72	2.9	2	16	7	6.8
CC1(c2cccc(Br)c2)NC(=O)N(CC(=O)Nc2ccc3c(c2)OCO3)C1=O (centres undefined)	i	0.3	2	4.3	0.68	4.2	.	-22*	-12*	3.1*
COCCN1Cc2cccc(C(=O)NC(C)CCc3ccco3)c2C1=O (centres undefined)	i	0.1	-3	1.3	0.68	5.3	6	3	2	-1.1
CC(=O)Oc1ccc2cc(-c3cccnc3)c(=O)oc2c1	i	.	.	-2.5	0.67	i	.	4	10	-4.9
CC(=O)Nc1sc2c(c1C(c1ccc(Cl)cc1)N1CCOCC1)CCCC2 (centres undefined)	.	0.0	6	.	0.73	13	15	.	.	.
Cc1cc(SCC(=O)OCC(=O)N(C)c2ccccc2)nc2ccccc12	i	0.4	-3	-3.0	0.64	3.8	?	-12	-12	2.5
CC1CC(C)CN(S(=O)(=O)c2ccc3c(c2)NC(=O)C(C)C(=O)N3)C1 (centres undefined)	i	0.3	-11	-1.0	0.7	2.5	-19	8	7	-2.2
CC1(C)CC(=O)CC(C)(C)N1OC(=O)c1ccco1	.	0.6	4	.	0.74	2.0	1	.	.	.

2 entries drawn at random from those above, as already listed:
SMILES	FGF22 binding	Bfl-1 A1 inh	Beta apoptosis	AF4-AF9 inh	Ecoli growth	UCH37 DUB inh	T cruzi repl	Ecoli rRNA inh	Ecoli rRNA inh OD600	Ecoli rRNA inh RFP
COc1ccc(N(CC(=O)NC(C)(C)C)C(=O)CCC(=O)Nc2nccs2)cc1	i	0.1	-10	3.4	0.72	2.9	2	16	7	6.8
CC(=O)Oc1ccc2cc(-c3cccnc3)c(=O)oc2c1	i	.	.	-2.5	0.67	i	.	4	10	-4.9

Rewritten as labelled records: three of the compounds above.
C[C@H](CO)N1C[C@H](C)[C@@H](CN(C)C(=O)Nc2ccccc2)Oc2ccc(NS(=O)(=O)c3cn(C)cn3)cc2C1=O
  FGF22 binding = i | Bfl-1 A1 inh = -0.5 | Beta apoptosis = -5 | AF4-AF9 inh = -2.8&-0.2 | Ecoli growth = 0.76 | UCH37 DUB inh = -34 | T cruzi repl = . | Ecoli rRNA inh = 5&-2 | Ecoli rRNA inh OD600 = 9&6 | Ecoli rRNA inh RFP = 2.1&-3.5

Cc1cc(SCC(=O)OCC(=O)N(C)c2ccccc2)nc2ccccc12
  FGF22 binding = i | Bfl-1 A1 inh = 0.4 | Beta apoptosis = -3 | AF4-AF9 inh = -3.0 | Ecoli growth = 0.64 | UCH37 DUB inh = 3.8 | T cruzi repl = ? | Ecoli rRNA inh = -12 | Ecoli rRNA inh OD600 = -12 | Ecoli rRNA inh RFP = 2.5

Cc1ccc(S(=O)(=O)NCC(=O)Nc2ccc3c(c2)OCCO3)cc1
  FGF22 binding = i | Bfl-1 A1 inh = 1.1 | Beta apoptosis = 1 | AF4-AF9 inh = -2.5 | Ecoli growth = 0.65 | UCH37 DUB inh = 1.4 | T cruzi repl = -5 | Ecoli rRNA inh = 0 | Ecoli rRNA inh OD600 = 5 | Ecoli rRNA inh RFP = 0.6

Not all compounds are listed; count on the stated rates, not on these rows.
